Ecoli growth: inhibitors of Escherichia coli growth | OD600, 23 h; stronger effect = lower value | OD600 absorbance (concentration not given with the values) | 330,000 compounds, 0.21% hits;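 active = OD600 absorbance below the run mean of sample wells minus 3.6 SD, in any replicate, cut at about 0.56 in these data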;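 note: stock transfer was 300 nL into about 60 µL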
FGF22 binding: binders of recombinant human FGF22 by thermal shift | 340,000 compounds, 1.5% hits | AID 651658 | calls only at 9.99 µM | SYPRO orange fluorescence; percent of sucrose octasulfate shift, DMSO zero | Q9HCT0;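 active = melting point raised past a set limit in the mean and every replicate; three in four hits are not shown here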
Target sequence (Q9HCT0 whole entry, looked up): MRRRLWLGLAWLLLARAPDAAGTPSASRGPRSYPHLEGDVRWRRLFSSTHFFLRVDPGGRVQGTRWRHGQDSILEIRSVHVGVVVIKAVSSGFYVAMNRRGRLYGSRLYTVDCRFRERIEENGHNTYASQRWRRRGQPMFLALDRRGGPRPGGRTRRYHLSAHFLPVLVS
AF4-AF9 inh: MLL-AF4/AF9 protein interaction inhibition. P42568. AlphaScreen, biotin-AF4 peptide binding to FLAG-AF9. inhibition, % at 10 µM. 350,000 compounds, 0.47% hits. AID 651704;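 active = every replicate reaching a set inhibition limit, whatever the replicate mean, cut at about 25% in these data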;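 note: 0% = plate neutral control median and 100% = total signal loss; the record names both 10 and 1 µM as test concentration; the first replicate is given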
Target sequence (P42568 whole entry, looked up): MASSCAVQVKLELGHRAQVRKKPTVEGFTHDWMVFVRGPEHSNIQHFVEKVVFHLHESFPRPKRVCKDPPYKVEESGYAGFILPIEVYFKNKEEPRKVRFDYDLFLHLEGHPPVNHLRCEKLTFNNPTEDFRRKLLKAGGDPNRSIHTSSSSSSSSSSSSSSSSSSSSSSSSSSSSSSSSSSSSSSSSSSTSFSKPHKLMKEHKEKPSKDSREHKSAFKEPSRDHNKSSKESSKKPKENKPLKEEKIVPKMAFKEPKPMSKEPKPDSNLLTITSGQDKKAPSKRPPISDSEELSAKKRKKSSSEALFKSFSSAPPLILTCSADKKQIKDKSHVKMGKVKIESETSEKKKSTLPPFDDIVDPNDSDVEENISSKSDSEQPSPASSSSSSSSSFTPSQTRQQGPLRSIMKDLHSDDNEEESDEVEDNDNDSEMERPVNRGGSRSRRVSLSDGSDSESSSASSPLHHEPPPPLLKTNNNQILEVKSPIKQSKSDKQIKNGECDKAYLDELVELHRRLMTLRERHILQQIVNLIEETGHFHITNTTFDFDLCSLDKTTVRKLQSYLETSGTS
UCH37 inh: inhibitors of human deubiquitinating enzyme UCH37; Q9Y5K5; purified proteasome/UCH37, Ub-AMC cleavage fluorescence; inhibition, % (concentration not given with the values); 330,000 compounds, 0.33% hits; AID 588478;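 active = mean of two replicates above 20%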;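 note: 0% = compound-free wells with enzyme and 100% = wells lacking proteasome; stock transfer was 100 nL into about 20 µL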
Target sequence (Q9Y5K5 whole entry, looked up): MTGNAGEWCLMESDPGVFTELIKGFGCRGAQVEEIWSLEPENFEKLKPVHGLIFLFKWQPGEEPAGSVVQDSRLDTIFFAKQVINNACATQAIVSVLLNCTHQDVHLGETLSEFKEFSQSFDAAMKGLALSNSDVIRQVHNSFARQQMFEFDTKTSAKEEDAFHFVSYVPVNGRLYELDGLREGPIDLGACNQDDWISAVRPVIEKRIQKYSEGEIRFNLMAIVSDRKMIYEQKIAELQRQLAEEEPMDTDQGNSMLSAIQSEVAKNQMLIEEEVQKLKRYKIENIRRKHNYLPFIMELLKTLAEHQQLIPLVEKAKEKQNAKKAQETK
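Test system – human UCH37 enzyme supplied as purified proteasome complex · Incubation – 30 min preincubation with enzyme, 25 min cleavage at room temperature · Detection – AMC fluorescence from Ub-AMC cleavage, excitation 355 nm, emission 460 nm · Benchmarks – no-proteasome wells (full inhibition) and compound-free wells (no inhibition)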
rRNA inh HTS: inhibits bacterial ribosomal RNA function over humanized ribosomes; E. coli WT GFP vs humanized-ribosome RFP mutants, fluorescence, 24 h; stronger effect = lower value; DMSO median 0, no signal -100; 350,000 compounds, 1.6% hits; GFP signal change (wild-type ribosome), % (no concentration beside the values); AID 720706;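 active = significant combined selectivity score with lowered wild-type GFP, culture density cut under 30%, mutant RFP and density less affected; inactive = any of these conditions unmet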; note: one replicate is shown; some compounds called inactive have numbers as strong as hits
T cruzi inh: T. cruzi replication inhibition; inhibition, % (test concentration not listed); T. cruzi beta-gal in NIH3T3, luminescence, 90 h; 300,000 compounds, 1.4% hits;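 active = mean inhibition across valid replicates above about 55%, limit read from the data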;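 note: signal also drops with host cell toxicity which is not excluded here; 0% = plate median of DMSO wells and 100% = zero luminescence signal; higher percent means less beta-gal luminescence so fewer parasites; stock transfer was 50 nL into about 50 µL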
A1 inh: inhibitors of the anti-apoptotic protein A1, read as caspase activation; MEF A1-2A-BIM cells, Caspase-Glo 3/7 luminescence, 3 h; percent of clofoctol response, vehicle zero; caspase activation, % (no concentration beside the values); 330,000 compounds, 0.066% hits; AID 2462;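 active = over half of replicate activation scores above 10%, or exactly half above 10 with the replicate mean above 10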;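 note: wells of about 30 µL received 50 nL stock; many hits fall short of the cut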
Beta apoptosis: beta cell apoptosis inhibition | INS-1E cytokine-induced death, ATP luminescence, 48 h; percent of positive-control rescue, neutral wells zero | protection from apoptosis, % (concentration not given with the values) | 300,000 compounds, 0.8% hits;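 active = all replicates at 75% or more, or half of them and the mean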;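 note: 0% = cytokine-treated negative control wells and 100% = positive control rescue; higher means more ATP so stronger rescue from cytokine killing; wells of about 40 µL received 100 nL stock; the first replicate is given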
rRNA inh HTS OD600: second read-out of rRNA inh HTS, no call of its own (marks repeat the call); OD600 change, %; measured here: OD600 growth;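 optical density of the mix in the first replicate; 0 = DMSO median and -100 = no signal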
rRNA inh HTS RFP: second read-out of rRNA inh HTS, no call of its own (marks repeat the call); RFP signal change, %; measured here: RFP humanized mutant strains;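 first replicate; 0 = DMSO median and -100 = no signal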
The depositor's hits bear a star; i = inactive; nt = not tested or not shown; & = joins results of further samples. The list is partial; rates above refer to the full screens.

SMILES	Ecoli growth	FGF22 binding	AF4-AF9 inh	UCH37 inh	rRNA inh HTS	rRNA inh HTS OD600	rRNA inh HTS RFP	T cruzi inh	A1 inh	Beta apoptosis
Cc1ccc(C)c(OCCC(=O)N2CCN(S(=O)(=O)c3ccc([N+](=O)[O-])cc3)CC2)c1	0.681	i	-2.8	4.5	-1.8	12.0	-2.4	nt	0.2	8.0
CC1CCCCC1NC(=O)C1CCCN(S(=O)(=O)c2ccc(-n3cnnn3)cc2)C1 (centres undefined)	0.649	i	-0.7	4.9	8.1	2.7	11.4	5.5	0.3	-9.3
CCOC(=O)Cc1csc(NC(=O)Nc2ccc(Cl)cc2)n1	0.64	i	-1.3	2.7	-2.8	-1.7	-1.0	-3.5	0.4	nt
CCCC(c1nnnn1Cc1cccs1)N1CCN(c2ccc(OC)cc2)CC1 (centres undefined)	0.772	nt	nt	2.4	nt	nt	nt	12.2	1.7	nt
COCCNc1nc(-c2ccc(OC)cc2)c(-c2ccc(OC)cc2)s1	0.701	i	8.7	-3.8	-26.8	-27.8	-8.9	28.2	-0.4	11.1
Cc1cc(C(=O)N/N=C/c2ccc(-c3cccc(Br)c3)o2)n[nH]1	nt	i	nt	nt	2.2	6.8	10.5	18.6	-0.5	11.4
CC(=O)c1ccccc1C(=O)N1CCCC(N2CCN(Cc3ccc4c(c3)OCO4)CC2)C1 (centres undefined)	0.675	i	4.4	-0.5	12.9	14.2	-2.0	-1.3	-0.2	2.2
O=C(NNc1cccc(Cl)n1)Nc1cccc(Cl)c1	0.708	nt	nt	1.9	nt	nt	nt	-10.3	0.1	-4.7
Cc1ccc(NC(=O)Nc2ccno2)cc1	0.449*	i	1.5	4.2	-6.1	-11.1	4.5	nt	-1.7	nt
CC(C)CN(C(=O)COc1ccc(-c2nnco2)cc1)C1CCS(=O)(=O)C1 (centres undefined)	0.679	i	-1.4	-0.2	20.7	9.7	1.4	-3.8	0.3	nt
CC(=O)Cn1c(=O)oc2ccccc21	0.628	i	nt	-1.5	19.7	6.7	2.7	-4.6	0.4	3.9
COc1ccc(/C=C2/CCc3ccccc3C2=O)cc1CN1CCOCC1	0.712	nt	nt	2.7	nt	nt	nt	57.3*	-0.3	0.8
CCOC(=O)c1ccc(NC(=O)NCc2ccc(OC)cc2)cc1	0.645	i	-8.9	0.7	-9.9	-11.6	-2.2	0.8	0.6	-7.6
O=C(Cc1cccc(F)c1)Nc1ccc2c(c1)CCC2	0.648	i	-3.4	-1.3	0.0	-5.1	0.8	-18.8	-0.4	-3.5
CC(=O)N1N=C(c2ccc(Cl)cc2)OC1(C)C	0.644	i	0.1	-6.5	10.3	8.6	-0.8	-5.9	0.7	nt
COc1ccc(C2C(C(C)=O)=C(O)C(=O)N2Cc2cccnc2)cc1 (centres undefined)	0.683	nt	nt	3.8	nt	nt	nt	-21.8	0.4	-2.7
C=CCOc1ccc(C2C3=C(CCCC3=O)N(CC(=O)O)C3=C2C(=O)CCC3)cc1OCC	0.68	i	-12.1	0.2	3.0	8.0	-0.7	-11.2	-0.3	-5.4
COc1ccc(CN=C2NC(=O)CC(C(=O)Nc3ccc([N+](=O)[O-])cc3C)S2)cc1 (centres undefined)	0.678	i	-1.3	7.2	-2.3	-0.1	-2.4	nt	nt	nt
CCCN1C(=O)/C(=C2\SC(=S)N(c3c(C)n(C)n(-c4ccccc4)c3=O)C2=O)c2ccccc21	0.691	nt	nt	1.9	nt	nt	nt	-14.3	-0.5	-4.7
CCOC(=O)c1c(C)n(C)c2ccc(OC)c(NC(=O)CN3CCCCC3)c12	0.69	nt	nt	1.9	nt	nt	nt	4.4	-0.5	11.7
Cn1c(SCC(=O)Nc2nccs2)nnc1-c1ccncc1	0.738	nt	nt	1.7	nt	nt	nt	-14.3	-0.2	-17.0
CCOC(=O)c1c(NC(=O)COC(=O)c2ccc(NC(=O)CC#N)cc2)sc(C(=O)NC)c1C	nt	i	-1.9	nt	1.0	0.6	2.9	nt	0.2	3.6
CCCCNc1c(N)n(CCC)c(=O)[nH]c1=O	0.671	i	1.1	-2.8	23.3	17.6	5.3	5.2	0.9	2.4
CCOC(=O)C1C(c2ccc3c(c2)OCO3)NC(=O)NC1(O)C(F)(F)F (centres undefined)	0.754	nt	nt	2.3	nt	nt	nt	-5.9	0.7	-1.6
O=C(NCc1ccc2c(c1)OCO2)C1Cc2ccccc2CN1C(=O)c1ccco1 (centres undefined)	0.663	i	-3.3	1.8	-6.2	-4.9	1.2	-12.9	-0.8	-0.8
CCN(CC)c1ccc2c(C)c(Cl)c(=O)oc2c1	0.661	i	-35.6	-441.5	-31.4	-43.7	-8.5	-8.8	-0.1	6.5
O=C(CN1CCOCC1)OCCCC1CCCCC1	0.728	nt	nt	0.9	nt	nt	nt	-11.6	0.7	-12.8
O=C(c1ccc(Cl)cc1)n1c(NCc2ccccc2)n[nH]c1=S	0.703	i	-5.0	-35.4	13.2	14.0	3.1	-11.4	-0.4	-0.1
CN(CC(=O)Nc1ccc(S(=O)(=O)N2CCCC2)cc1)Cc1ccc(Cl)cc1	0.674	i	-2.0	-4.2	-26.2	-21.3	9.1	57.4*	1.5	-4.5
CC1Cc2nc(SCC(=O)NCc3ccco3)n(Cc3ccccc3)c(=O)c2S1 (centres undefined)	0.717	i	8.3	1.9	23.1	-16.6	-7.8	11.0	-0.1	11.6

Ecoli growth: what is marked active above
Structure	Ecoli growth	FGF22 binding	AF4-AF9 inh	UCH37 inh	rRNA inh HTS	rRNA inh HTS OD600	rRNA inh HTS RFP
Cc1ccc(NC(=O)Nc2ccno2)cc1	0.449*	i	1.5	4.2	-6.1	-11.1	4.5

The list continues.
SMILES	Ecoli growth	FGF22 binding	AF4-AF9 inh	UCH37 inh	rRNA inh HTS	rRNA inh HTS OD600	rRNA inh HTS RFP	T cruzi inh	A1 inh	Beta apoptosis
O=C1c2cccc3c([N+](=O)[O-])ccc(c23)C(=O)N1c1ccccn1	0.668	nt	nt	-50.1	nt	nt	nt	20.5	-0.9	nt
CCn1nc2cc(C(=O)NCCc3cccs3)ccc2c1OC	0.688	i	25.9*	-43.3	7.7	19.2	4.2	-18.2	-1.2	-0.3
CN(Cc1ccc(Cl)cc1Cl)C(=O)c1cc(=O)c2ccccc2o1	nt	i	3.3	nt	-26.0	-37.5	-3.5	-0.1	0.5	-4.3
O=S1(=O)NC(=NC2CCCCCC2)c2ccccc21	0.654	nt	nt	2.3	nt	nt	nt	-0.5	-0.2	3.9
CN(C)CCN(Cc1ccccc1)c1ccnc(N(C)C)c1C#N	0.768	nt	nt	-27.2	nt	nt	nt	13.9	0.1	-9.7
CSc1sc(C(=O)NCC2CC2)cc1S(=O)(=O)C(C)C	0.685	i	1.0	3.9	nt	nt	nt	-19.3	0.5	-0.5
Cc1ccc(/C=C/C(=O)N2CCc3ccccc3C2)cc1	0.703	nt	nt	2.1	nt	nt	nt	-2.3	-0.6	-8.5
COc1ccc(C2=NN(S(C)(=O)=O)C(c3cccs3)C2)cc1OC (centres undefined)	0.674	i	-1.8	-0.3	14.7	26.8	0.6	-20.0	0.0	-3.2
CCOC(=O)c1ccc(Oc2nc(OC)cc(OC)n2)cc1	0.696	i	-2.6	0.1	-9.1	-16.8	-3.3	4.4	-0.3	-5.0
Cc1ccc(-c2nc3[nH]c(=O)cc(NC(=O)C(C)C)n3n2)cc1	0.694	i	13.2	3.6	5.8	0.6	-4.2	13.1	1.8	-6.8
CN(C(=O)CSc1nnnn1-c1ccc(Cl)cc1)C1CCS(=O)(=O)C1 (centres undefined)	0.693	i	0.0	1.0	6.3	11.3	-0.2	nt	-0.3	-13.1
C/C(=N\NC(=O)COc1cc(C)cc(C)c1)c1cccc(NC(=O)C2CCC2)c1	nt	i	-1.0	nt	-0.9	-35.8	2.1	11.9	0.2	-3.0
COc1ccc(NC(=O)Nc2ccc3nccnc3c2)cc1	0.723	nt	nt	2.0	nt	nt	nt	-16.1	0.6	-3.9
COc1ccc(-n2ccn(CC(=O)Nc3ccc(OC)cc3OC)c(=O)c2=O)cc1	0.718	i	-0.3	1.8	5.5	13.0	-5.0	-22.3	-0.6	nt
Cc1cccc(C(=O)Nc2cccc(-c3cnc4ccccc4n3)c2)c1	0.715	nt	nt	3.9	nt	nt	nt	9.4	-0.8	-1.8
COc1ccc(NC(=O)CCCC2=NS(=O)(=O)c3ccccc3N2)cc1	0.683	i	1.4	3.8	10.9	9.6	-0.4	-2.0	0.7	nt
O=C(OCN1C(=O)c2ccccc2C1=O)C1CCCCC1	0.689	nt	nt	1.8	nt	nt	nt	-5.1	-0.6	-0.2
O=C(c1ccco1)N(Cc1cccs1)C1CCS(=O)(=O)C1 (centres undefined)	0.684	nt	nt	1.4	nt	nt	nt	2.9	0.7	0.8
c1ccc2c(c1)OCCOCCOCCO2	0.695	i	-1.4	2.9	10.3	9.8	1.9	1.9	0.2	-8.3
C#CC(CC)(CC)NC(=S)Nc1ccc(S(N)(=O)=O)cc1	0.673	nt	nt	4.6	nt	nt	nt	-5.1	0.5	-2.1
COc1cc(NC(=O)CSc2nnc3n2C(C)(C)Cc2ccccc2-3)cc(OC)c1	0.703	nt	nt	0.5	-10.9	-4.8	0.1	9.3	0.6	-10.6
COc1ccc(S(=O)(=O)N(C)C[C@H]2Oc3ccc(NC(=O)NC(C)C)cc3C(=O)N([C@H](C)CO)C[C@@H]2C)cc1	0.804	i	-6.6	1.9	1.9&1.1	1.4&17.4	1.1&14.2	nt	-0.1	-4.4

Seven entries out of the list, ordered by SMILES length, low to high:
SMILES	Ecoli growth	FGF22 binding	AF4-AF9 inh	UCH37 inh	rRNA inh HTS	rRNA inh HTS OD600	rRNA inh HTS RFP	T cruzi inh	A1 inh	Beta apoptosis
CC(=O)Cn1c(=O)oc2ccccc21	0.628	i	nt	-1.5	19.7	6.7	2.7	-4.6	0.4	3.9
O=S1(=O)NC(=NC2CCCCCC2)c2ccccc21	0.654	nt	nt	2.3	nt	nt	nt	-0.5	-0.2	3.9
Cc1ccc(/C=C/C(=O)N2CCc3ccccc3C2)cc1	0.703	nt	nt	2.1	nt	nt	nt	-2.3	-0.6	-8.5
CCOC(=O)Cc1csc(NC(=O)Nc2ccc(Cl)cc2)n1	0.64	i	-1.3	2.7	-2.8	-1.7	-1.0	-3.5	0.4	nt
C#CC(CC)(CC)NC(=S)Nc1ccc(S(N)(=O)=O)cc1	0.673	nt	nt	4.6	nt	nt	nt	-5.1	0.5	-2.1
COc1ccc(/C=C2/CCc3ccccc3C2=O)cc1CN1CCOCC1	0.712	nt	nt	2.7	nt	nt	nt	57.3*	-0.3	0.8
O=C(NCc1ccc2c(c1)OCO2)C1Cc2ccccc2CN1C(=O)c1ccco1 (centres undefined)	0.663	i	-3.3	1.8	-6.2	-4.9	1.2	-12.9	-0.8	-0.8

Assay outcomes deposited in PubChem BioAssay by several laboratories.
